gsp ag = qHTS for Agonist of gsp, the Etiologic Mutation Responsible for Fibrous Dysplasia/McCune-Albright Syndrome: qHTS | gsp mutant cells, cAMP HTRF, 30 min; control for the full effect not named in the record | AID 624287, 2012 | Potency, µM (doses to about 76.9 µM), inactives show at the highest dose activation (cAMP increase), most hits filed as activators | actives 0.13% (n = 340,000); active = well fitted activation curve with a large enough effect; inconclusive = small, poorly fitted or top-dose-only effect, or another doubt; inactive = no such curve, though single readings can be large or run the other way; cell line not stated here;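 further: phosphodiesterase inhibitor Ro 20-1724 added with compounds to block cAMP breakdown; potency means the concentration at half of the fitted maximal effect; nearly all actives have a fitted effect of over 60% in size; about a fifth of the inactives were tested at one dose only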
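Cells stably selected in G418 were plated at 2000/well, grown 16-24 hr, then given compounds in DMSO with the PDE inhibitor […] (300 uM solution added) for 30 min at 37C; cAMP was read by HTRF.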
TRPV1 potentiator = HTS Assay for Compounds that Act as Potentiators of the Vanilloid Receptor 1; Transient receptor potential cation channel subfamily V member 1 (Homo sapiens), Q8NER1; TRPV1-expressing cells, Fluo-8 calcium influx, capsaicin EC20 potentiation; host cell line not named in the record; control for the full effect not named in the record; potentiation, % at 8.33 µM; actives 0.02% (n = 320,000); AID 540277, 2011; active means potentiation above 80%; inconclusive means 30% to 80%; inactive means below 30%; further: 0% is about no effect
Target sequence (Q8NER1 whole entry, looked up): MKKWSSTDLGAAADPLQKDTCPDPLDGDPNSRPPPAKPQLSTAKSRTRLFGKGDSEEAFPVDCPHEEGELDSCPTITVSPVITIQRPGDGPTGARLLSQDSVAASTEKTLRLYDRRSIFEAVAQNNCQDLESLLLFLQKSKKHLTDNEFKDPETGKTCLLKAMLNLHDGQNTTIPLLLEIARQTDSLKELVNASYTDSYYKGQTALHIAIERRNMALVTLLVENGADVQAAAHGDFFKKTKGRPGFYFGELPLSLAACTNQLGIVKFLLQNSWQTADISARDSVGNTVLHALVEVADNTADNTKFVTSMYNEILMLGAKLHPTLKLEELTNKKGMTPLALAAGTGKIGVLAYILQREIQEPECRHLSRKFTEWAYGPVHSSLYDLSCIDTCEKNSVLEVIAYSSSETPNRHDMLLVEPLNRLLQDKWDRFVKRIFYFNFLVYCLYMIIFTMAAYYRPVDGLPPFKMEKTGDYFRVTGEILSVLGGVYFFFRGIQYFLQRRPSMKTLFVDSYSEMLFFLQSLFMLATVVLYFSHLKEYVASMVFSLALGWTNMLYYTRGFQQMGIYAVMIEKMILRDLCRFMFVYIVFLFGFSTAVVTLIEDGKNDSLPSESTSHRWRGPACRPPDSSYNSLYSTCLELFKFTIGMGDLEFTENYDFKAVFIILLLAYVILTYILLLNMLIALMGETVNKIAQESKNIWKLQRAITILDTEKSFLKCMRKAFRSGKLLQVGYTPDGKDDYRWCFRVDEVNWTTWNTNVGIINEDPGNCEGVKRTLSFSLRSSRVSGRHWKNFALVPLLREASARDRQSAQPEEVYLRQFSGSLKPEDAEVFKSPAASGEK
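TRPV1-expressing cells were cultured overnight at 35.5C and loaded with Fluo-8 calcium dye for 40 to 90 min at room temperature. After a 10 s baseline, compound was added and calcium influx was read kinetically for 3 min (ex 480/em 520 nm).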
ClpP mod = qHTS Assay for Activators of ClpP; ATP-dependent Clp protease proteolytic subunit (Bacillus subtilis (strain 168)), P80244; purified B. subtilis ClpP, FRET peptide cleavage, 20 min; Potency, µM (series often up to 57.5 µM), without a hit: top-dose activity change, negative = active; actives 1.9% (n = 340,000); active = well fitted falling curve with a large enough effect; inconclusive = small, poorly fitted or top-dose-only effect; inactive = no such curve, though single readings can be large or run the other way; further: potency means the concentration at half of the fitted maximal effect; the source files actives as falling curves though it sought activators and does not explain the sign; nearly all actives have a fitted effect of over 65% in size; many hits overshoot -100%
Target sequence (P80244 whole entry, looked up): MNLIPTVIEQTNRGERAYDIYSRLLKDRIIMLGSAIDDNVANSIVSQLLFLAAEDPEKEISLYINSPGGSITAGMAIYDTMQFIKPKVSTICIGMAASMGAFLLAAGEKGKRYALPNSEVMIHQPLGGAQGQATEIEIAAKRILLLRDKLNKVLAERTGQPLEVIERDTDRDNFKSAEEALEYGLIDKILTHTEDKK
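FRET quenching reversal measured ClpP activation: 10 microg/mL B. subtilis ClpP at pH 8 with the FRET-FV decapeptide, read at 430 nm after 320 nm excitation. The 20-min minus 0-min signal was scaled between DMSO/no-enzyme wells and ADEP (5.8 microM final).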
gsp antag = qHTS for Antagonists of gsp, the Etiologic Mutation Responsible for Fibrous Dysplasia/McCune-Albright Syndrome: qHTS; actives 0.4% (n = 340,000); Potency, µM (series often up to 76.9 µM), without a hit: at the top dose activity change, negative = inhibition, actives largely listed as inhibitors; gsp-mutant cells, cAMP HTRF, 30 min; control for the full effect not named in the record; AID 624288, 2012; active = falling curve of any shape with a large fitted effect; inconclusive = falling curve, mostly with a smaller effect; inactive = flat or rising curve; cell line not stated here;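 further: intracellular cAMP measured with PDE inhibitor Ro 20-1724 present during compound exposure; potency means the concentration at half of the fitted maximal effect; on the % scale 0 is the no-effect control and ±100 the full control effect; nearly all actives have a fitted effect of over 65% in size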
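Measurement of cellular cAMP by homogeneous time-resolved fluorescence following a 30 min compound exposure at 37C. The PDE inhibitor […] was present throughout; the assay buffer was DPBS with 0.05% BSA and 0.005% Tween 20.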
CtBP-E1A blk = qHTS Assay for Inhibitors of the CtBP/E1A Interaction | CtBP / adenovirus E1A interaction (AlphaScreen) | AlphaScreen GST-E1A/His-CtBP binding, 1536-well; active compounds read low; control for the full effect not named in the record | activity change, % (no concentration beside the values) | actives 0.49% (n = 340,000) | AID 651724, 2012; in the data active means activity change below about -65%; inconclusive means about -30% to -65%; inactive means above about -30%; further: on the % scale 0 is the no-effect control and ±100 the full control effect
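GST-E1A and His-tagged CtBP (125 nM each as 5X stock) were preincubated with pin-transferred compound for 2 h at 37 °C in the dark, then glutathione donor and nickel acceptor beads were added for 1 h before AlphaScreen reading.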
Menin MLL FP FL = qHTS Assay for Inhibitors Targeting the Menin-MLL Interaction in MLL Related Leukemias: Competition With Fluorescein Labeled MLL-derived Peptide; FP activity change, % at 61.4 µM; AID 1766, 2009; 290,000 tested, under 10 active; Fluorescence polarization, fluorescein-MLL peptide displacement from menin; inconclusive = falling polarisation curve, or a change in total fluorescence; inactive = total fluorescence flat and polarisation flat or rising; no compound was filed as active; the % refers to the polarisation; negative = inhibition;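 further: % of control where 0% means no effect; inhibitors lower the polarisation; unlabelled MLL peptide was the positive control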
Sfp PPTase inh = qHTS Assay for Inhibitors of Bacillus subtilis Sfp phosphopantetheinyl transferase (PPTase). 4'-phosphopantetheinyl transferase ffp (Bacillus subtilis), Q9F4F7. Potency, µM, without a hit: max response, negative = inhibition, actives largely listed as inhibitors. Biochemical Sfp PPTase activity, qHTS. actives 3.5% (n = 310,000). AID 1490, 2009; active means well fitted inhibition curve with a large enough effect; inconclusive means small, poorly fitted or top-dose-only effect, or another doubt; inactive means no such curve, though single readings can be large or run the other way;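 further: the enzyme is Sfp with the accession as filed and its product quenches rhodamine fluorescence; potency means the concentration at half of the fitted maximal effect; 0% = enzyme reaction without inhibitor and -100% = no enzyme wells; top concentration of the series not given in the record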
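Buffer: 50 mM Hepes-Na pH 7.6, 10 mM MgCl2, 0.01% Nonidet P-40, 0.01% BSA. Enzyme 15 nM, pre-exposed to compound 15 min; substrates then added and fluorescence change tracked over 30 min.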
* hit, by the source's call; ? = inconclusive; / = no result given; [ ] = another dose, or the depositor's remark.

Values run as follows: gsp ag | TRPV1 potentiator | ClpP mod | gsp antag | CtBP-E1A blk | Menin MLL FP FL | Sfp PPTase inh
1. COC(C(=O)N1CCC(n2nccc2NC(=O)C2CC2)CC1)c1ccccc1 (stereo not given)
  24% | 1 | 0.3% | -3% | 11 | / | 14%
2. NC(=O)c1nsc(C(=O)N(Cc2ccc(F)cc2)C(C(=O)NCC2CCCO2)c2ccc(F)cc2)c1N (stereo not given)
  0%[15.4 µM] | 27 | -2.6% | 0% | -18 | -3.8 | -3%
3. CCSC1=NSC2=NC(=O)/C(=C\c3coc4ccccc4c3=O)C(=N)N12
  -4% | 6 | ? | ? | 9 | ? | -15%
4. c1csc(-c2nc(NCCCN3CCOCC3)c3ccccc3n2)c1
  0%[15.4 µM] | -3 | 35µM* | 7% | -16 | -2.0 | 3%
5. O=C(Nc1ccccc1)c1ccccc1C(=O)N1CCCCC1
  8% | 1 | -0.7% | 6% | / | 0.4 | 16%
6. CCCCn1nnnc1SCC(=O)N1CCN(C(=O)c2ccco2)CC1
  0% | -4 | 0.4% | 8% | 6 | 3.0 | 17%
7. CC(=O)Nc1ccc(N2C(=O)CC(N3CCN(Cc4ccc5c(c4)OCO5)CC3)C2=O)cc1 (stereo not given)
  8% | -3 | 0.4% | -9% | 2 | 2.0 | -13%
8. NC(=S)NN=C1CCCCCCCCCC1
  -25% | / | -1.3% | 1% | -1 | / | /
9. COCCCN1C(=O)C(CC(=O)NC2CCCCC2)CC(C(=O)N(C)C)=C1C (stereo not given)
  1% | / | 0.7% | / | 0 | / | /
10. CCOc1ccc(C2OC34CCCCC3C(C#N)(C#N)C2(C#N)C(=N)O4)cc1OC (stereo not given)
  -1% | -2 | ? | -6% | -22 | ? | 12%
11. N#CCCn1cc(C(=O)O)c(-c2cc3ccccc3o2)n1
  0% | 17 | -14% | 11% | 6 | 1.5 | -1%
12. COc1ccc(N=C2SCC(c3ccccc3)=NN2C)cc1
  -20% | 1 | 0.0% | -21% | / | -11 | -7%
13. CCN1CCN(CCC(=O)Nc2ccc(C)cc2)CC1
  -12% | -6 | -2.3% | 1% | -4 | -4.0 | -2%
14. CCc1ccccc1NC(=O)NCc1cccnc1
  -9% | -5 | 0.8% | 12% | 1 | 1.8 | 16%
15. O=C(NCC#CCOCc1ccccc1)c1ccccc1
  / | 4 | -4.9% | 6% | -24 | 4.7 | -3%
16. CCC12OC(=N)C(C#N)(C1C)C(C#N)(C#N)C(c1ccccc1)O2 (stereo not given)
  36%[15.4 µM] | ? | 7.1µM* | 1% | -14 | -3.3 | 6%
17. COc1ccc(/C(N)=N/OC(=O)Cc2cccs2)cc1OC
  2% | -39 | 0.8% | 1% | 17 | 13 | 79µM*
18. Cc1ccc(-c2nc3c(c(SCC(=O)N4CCCC4)n2)COC(C)(C)C3)cc1
  -163%[inhibitor] | / | 3.4% | / | 3 | / | /
19. Cc1ccc(S(=O)(=O)N2CCC(=O)N([C@H](COCc3ccc(Cl)cc3)Cc3ccccc3)CC2)cc1
  / | / | -0.1% | / | 3 | -3.4 | -1%
20. CC1=C(C#N)C2C(/C1=N/O)C2(C)C (stereo not given)
  8% | / | 0.1% | 11% | 6 | 1.2 | 8%
21. CCCCCCn1c(=O)[nH]c2c(c1=O)CCC2
  -59%[inhibitor][15.4 µM] | -29 | / | -5% | 5 | 6.1 | -4%
22. O=C(/C=C\c1cn(-c2ccccc2)nc1-c1ccccc1)Nc1nccs1
  -2% | -1 | -33% | -17% | 6 | -0.2 | -7%
23. Cc1ccc(S(=O)(=O)/N=C(/Nc2c(C)n(C)n(-c3ccccc3)c2=O)c2ccc(Cl)cc2)cc1
  -5% | 1 | -3.5% | -7% | -2 | 4.0 | 2%
24. CCOP(=O)(c1ccc(N(C)C)cc1)C(O)c1ccc(OC)cc1 (stereo not given)
  3%[15.4 µM] | 22 | / | 3% | 3 | -4.5 | -3%
25. Cn1c(=O)[nH]c(=O)c2c1nc(Br)n2C/C=N/Nc1ccccc1
  ? | 14 | / | -9% | -12 | -3.9 | 56µM*
26. C/C(=N/Nc1cc(-c2ccccc2)nc(-c2ccccc2)n1)c1ccc(O)cc1
  -35%[inhibitor] | 0 | -12% | -3% | 0 | 1.6 | 6%
27. CCOC(=O)CCCCC(=O)c1[nH]c(=O)[nH]c1C[n+]1ccc(C)cc1
  12% | -1 | -0.3% | 12% | / | 0.3 | 10%
28. Cc1cccc(NC2=NC(C)(C)N=C(N)N2)c1C
  0% | -5 | -2.6% | 12% | 8 | 3.2 | 8%
29. O=C(Cn1ccc(=O)[nH]c1=O)Nc1ccc(C(=O)O)c(O)c1
  -5% | ? | -25% | 5% | / | -13 | -1%
30. C/C(CC(=O)Nc1cccnc1)=N\NC(=O)c1ccc([N+](=O)[O-])c(Cl)c1
  -4% | 10 | -10% | 6% | -1 | 2.5 | -17%
31. COc1ccc(NC(C)=O)cc1S(=O)(=O)NC(Cc1ccccc1)C(=O)NCc1ccccc1C (stereo not given)
  ? | -15 | / | 3% | 2 | -4.4 | 4%
32. COc1cccc(NC(=O)c2cnc[nH]2)c1
  -27% | -23 | -0.1% | 8% | 2 | 1.3 | -1%
33. CN(C(=O)c1ccc(S(=O)(=O)N2CCCCC2)cc1)C1CCS(=O)(=O)C1 (stereo not given)
  -1%[15.4 µM] | 7 | 0.5% | 14% | 4 | / | /
34. COc1ccc(-c2nc3ncccn3c2Br)cc1
  -5% | 7 | 4.6% | 1% | -9 | 0.4 | 12%
35. O=C(COc1ccccc1)NCC(=O)N1CCCC(C(F)(F)F)C1 (stereo not given)
  18% | / | 2.1% | 11% | 6 | / | /
36. COc1ccc(S(=O)(=O)Nc2ccc(Nc3ccccc3)cc2)cc1
  -10% | / | -0.3% | ? | / | / | /
37. CC1CCC(NC(=O)COC(=O)CCC(=O)c2ccc(Cl)s2)CC1 (stereo not given)
  -15% | -3 | -4.0% | 5% | -17 | / | /
38. COc1ccc(S(=O)(=O)Nc2ccc(C)cc2)cc1OC
  20% | 6 | -3.9% | 0% | 10 | -1.1 | 14%
39. O=C(O)c1ccc(/C=N\Nc2ccc(S(=O)(=O)N3CCOCC3)cc2[N+](=O)[O-])cc1
  ? | ? | -0.7% | 1% | 3 | 2.9 | 4%
40. CN(CC(=O)Nc1cccc2ccccc12)C(=O)c1cccc(S(=O)(=O)N(C)C)c1
  22% | 0 | -1.6% | 7% | -5 | 2.5 | 6%
41. COc1cc(C)ccc1OCC(=O)OCC(=O)c1ccc[nH]1
  -1%[15.4 µM] | / | -0.2% | -5% | 4 | / | /
42. CCCCNC(=O)OCCNC(=O)Oc1cccc(C)c1
  -10% | 1 | 1.6% | 3% | -1 | 1.7 | 5%
43. COC(=O)CCC(=O)NNC(=O)c1ccc([N+](=O)[O-])cc1
  14% | -9 | 1.6% | 9% | 8 | 1.1 | 13%
44. CN1CCN(C(=O)CC2C(=O)NCCN2Cc2ccc(-c3ccccc3)cc2)CC1 (stereo not given)
  25% | 2 | / | 5% | 6 | -9.5 | 4%
45. CCN(CCO)c1cc(Cl)nc(SC)n1
  12% | -2 | -0.3% | 10% | -2 | 0.2 | 9%
46. O=C1CCCc2nc3c(cc21)C(O)Oc1ccccc1-3 (stereo not given)
  -6%[15.4 µM] | 6 | / | 4% | -20 | 0.5 | 11%
47. COc1ccc(NC2CCCN(C(=O)c3cccnc3SC)C2)cc1OC (stereo not given)
  1% | -7 | -3.7% | -10% | -16 | / | 1%
48. COc1cccc(NC(=O)c2ccn(C)n2)c1
  18% | 4 | 1.0% | 13% | -1 | -0.6 | -12%
49. Cc1c(Cl)cccc1NC(=S)NN
  -118%[inhibitor] | -1 | 2.6% | -4% | / | -2.1 | 11%
50. COc1ccc(NC(=O)COc2ccc3c(c2)CCC3)cc1
  -9% | -13 | 1.2% | 4% | 8 | -0.2 | -14%

Continued:
Values run as follows: gsp ag | TRPV1 potentiator | ClpP mod | gsp antag | CtBP-E1A blk | Menin MLL FP FL | Sfp PPTase inh
51. CCOC(=O)N1CCN(C(=O)C2CCN(S(=O)(=O)c3cc(OC)ccc3OC)CC2)CC1
  -4%[15.4 µM] | 1 | / | -1% | 3 | -1.7 | -8%
52. COc1ccc(C(=O)n2nc(-c3ccccc3)nc2N)cc1OC
  ? | -4 | -6.1% | -4% | 5 | -4.7 | 79µM*
53. COc1cccc(/C=C(/C#N)c2nc3ccccc3[nH]2)c1OC(C)C(=O)O (stereo not given)
  -8% | 5 | -0.3% | 1% | / | -0.9 | 8%
54. CCc1ccc(NC(=O)[C@@H](NC(=O)[C@@H]2Cc3ccccc3CN2)C(C)CC)cc1 (stereo not given in full)
  12% | -8 | -3.3% | -6% | / | -0.4 | -15%
55. O=C(C1CCN(S(=O)(=O)c2ccc(Cl)cc2)CC1)N1CCN(c2ccccn2)CC1
  0% | 16 | 4.4% | -13% | 2 | / | /
56. COc1ccc(C2=CC(=O)N(Nc3ccccc3)C2=O)cc1
  22%[15.4 µM] | 28 | / | 26% | -2 | 1.6 | -4%
57. Cc1ccc2oc(-c3cccc(NC(=O)c4ccccn4)c3)nc2c1
  3% | / | 18% | ? | 5 | / | /
58. COC(=O)CSc1nnc(-c2ccc3c(c2)OCO3)n1C
  5% | -6 | -0.8% | 4% | -11 | 0.6 | 14%
59. Cc1cc(C)nc(Nc2ncn[nH]2)n1
  / | -3 | / | / | / | 0.0 | 14%
